Compound activity from PubChem BioAssay.
MT1-MMP act inh: blockers of MT1-MMP proenzyme processing, primary screen, HT1080 RFP-PRO-GFP cells, GFP/RFP fluorescence; Matrix metalloproteinase-14 (Homo sapiens), P50281; GFP/RFP ratio fluorescence, overnight; percent of plate control window, DMSO zero; GFP/RFP ratio change, % at 20 µM; 360,000 compounds, 0.061% hits; AID 651647, 2012;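 active means GFP/RFP ratio change of at least 30% with cell ATP level not reduced by more than half and red fluorescence within 50% of control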; further: strong numbers were not always called active
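Assay system – RFP-PRO-GFP reporter HT1080 cells · Compound dosing – single dose of 20 µM compound, 1% DMSO final · Incubation – overnight compound exposure at 37 °C · Measure – GFP/RFP fluorescence ratio · Benchmarks – DMSO wells and RFP-L50D-GFP cells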
PABP FP inh: PABP poly(A) RNA binding inhibitors, primary screen, biochemical, fluorescence polarization, uHTS | inhibition, % at 35 µM | Polyadenylate-binding protein 1 (Homo sapiens), P11940 | 290,000 compounds, 1% hits;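 active means 50% or more with normal probe brightness, or confirmed in later tests; inconclusive means above 50% with abnormal brightness, or retests that disagree; inactive means below 50% or failed in later tests; about a fifth of its hits are not listed in these tables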;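 further: calls also rest on retests at 20 µM and on dose response follow-up; controls were probe without protein and protein plus probe with vehicle; some compounds called inactive have numbers as strong as hits; many hits fall short of the cut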
Target sequence (P11940 whole entry, looked up): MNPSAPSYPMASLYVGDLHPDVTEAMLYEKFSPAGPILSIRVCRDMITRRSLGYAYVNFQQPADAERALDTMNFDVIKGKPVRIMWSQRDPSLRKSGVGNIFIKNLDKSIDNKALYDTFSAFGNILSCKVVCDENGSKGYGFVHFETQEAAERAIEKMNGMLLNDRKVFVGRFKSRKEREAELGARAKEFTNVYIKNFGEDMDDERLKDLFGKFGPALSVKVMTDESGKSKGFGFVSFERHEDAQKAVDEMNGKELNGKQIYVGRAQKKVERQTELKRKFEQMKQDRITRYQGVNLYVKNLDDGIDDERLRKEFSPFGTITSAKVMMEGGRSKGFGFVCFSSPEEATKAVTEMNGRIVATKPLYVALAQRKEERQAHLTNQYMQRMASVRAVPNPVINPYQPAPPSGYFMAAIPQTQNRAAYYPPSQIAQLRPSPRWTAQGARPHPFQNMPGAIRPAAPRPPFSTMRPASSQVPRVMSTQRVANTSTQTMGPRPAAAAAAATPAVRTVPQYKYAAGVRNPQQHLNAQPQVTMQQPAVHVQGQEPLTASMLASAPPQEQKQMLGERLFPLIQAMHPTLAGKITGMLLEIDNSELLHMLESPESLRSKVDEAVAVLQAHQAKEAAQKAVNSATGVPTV
eIF4H FP inh: human eIF4H binding inhibitors, primary screen, translation initiation inhibitor project, biochemical, uHTS, fluorescence polarization | eIF4H fluorescence polarization binding assay | inhibition, % at 35 µM | AID 2012, 2009 | Eukaryotic translation initiation factor 4H (Homo sapiens), Q15056 | 290,000 compounds, 0.94% hits;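 active means 50% or more with normal probe brightness, or confirmed in later tests; inconclusive means above 50% with abnormal brightness, or retests that disagree; inactive means below 50% or failed in later tests; about a fifth of its hits are not listed in these tables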;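 further: calls also rest on retests at 20 µM and on dose response follow-up; 0% = protein and probe with vehicle and 100% = probe without protein; strong numbers were not always called active; many hits fall short of the cut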
HIV Env fusion: inhibitors of HIV-1 Env-driven cell-cell fusion, primary screen, HeLa-JRFL effector, CEM21 target cells, luciferase; inhibition, % at 12.3 µM; 360,000 compounds, 1.1% hits;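 active means mean replicate inhibition score of at least 50 and every replicate individually at or above 50; inconclusive means only one of the two criteria met; inactive means mean below 50 and not all replicates reaching 50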;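 further: 0% = plate neutral controls and 100% = maraviroc near 300 nM; one replicate is shown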
Rce1 inh: yeast Rce1p protease inhibitors, primary screen, biochemical, fluorescence, cell-free homogeneous; 290,000 compounds, 0.27% hits; AID 2563, 2010; yeast membranes, quenched prenylated peptide cleavage fluorescence; calls only;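 active means fall in fluorescence gain of 50% or more versus controls, with final raw signal at or below 3038400; inconclusive means same 50% fall but final raw signal above 3038400; inactive means fall in fluorescence gain under 50%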;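 further: plate controls were neutral control wells for no effect and wells lacking membranes for full effect; tested at 10 µM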
Target sequence (Q03530 whole entry, looked up): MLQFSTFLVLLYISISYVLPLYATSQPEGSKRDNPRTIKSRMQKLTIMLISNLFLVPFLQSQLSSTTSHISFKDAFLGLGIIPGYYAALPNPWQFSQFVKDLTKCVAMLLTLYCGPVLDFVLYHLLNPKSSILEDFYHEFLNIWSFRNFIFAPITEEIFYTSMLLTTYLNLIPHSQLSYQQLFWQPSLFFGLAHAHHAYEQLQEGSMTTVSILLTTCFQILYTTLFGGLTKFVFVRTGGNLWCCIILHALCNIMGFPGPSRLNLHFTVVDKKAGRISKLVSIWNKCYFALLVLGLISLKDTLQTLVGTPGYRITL
UUG fidelity: modulators of yeast start codon fidelity, primary screen, whole organism, S. cerevisiae, single point, plate reader | S. cerevisiae UUG-firefly luciferase reporter, luminescence/redox ratio | activity score, % at 18.7 µM | 350,000 compounds, 0.13% hits;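 active means replicate mean at a twofold rise or more, about +100% in these data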;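 further: firefly luciferase made from a UUG start codon reports start codon fidelity; reporter light over untreated wells divided by growth signal over untreated wells; some hits fall short of that in this replicate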
CSC inhib: cancer stem cell viability inhibitors, primary screen, luminescence; cancer stem cell-like cells viability; inhibition, % at 7.5 µM; 300,000 compounds, 1.1% hits; AID 2717, 2010;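 active means mean at 75% or more and at least half the replicates too; inconclusive means mean and replicates disagree; tested in HMLE shEcad cells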;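 further: 0% = median of negative and 100% = median of positive control wells; the first replicate is given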
MT1-MMP act inh RFP: second read-out of MT1-MMP act inh, no call of its own (marks repeat the call); RFP signal change, %; measured here: RFP expression control read;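 0 = vehicle wells; hits needed this value within 50% of zero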
Starred values were filed as active, the others as inactive; i = inactive; ? = inconclusive; · = no result given.

SMILES	MT1-MMP act inh	MT1-MMP act inh RFP	PABP FP inh	eIF4H FP inh	HIV Env fusion	Rce1 inh	UUG fidelity	CSC inhib
O=[N+]([O-])c1cccc(NC2=NCCC2)c1	-3	1	-11	6	20	i	·	-3
CCOC(=O)N1CCC(NC(=O)C2CCN(C(=O)N3CC(C)Oc4ccc(C)cc43)CC2)CC1 (stereo unspecified)	-5	-6	0	10	-32	i	10	-8
C/C(=N\NC(=O)c1cccc(S(=O)(=O)N2CCOCC2)c1)c1ccc(C)cc1	3	1	·	·	·	·	-6	-13
Cc1ccc(C(C)C)c(OCC(O)CN2CCc3ccccc3C2)c1 (stereo unspecified)	-1	-12	6	-4	12	i	-33	12
Cc1ccc(C)c(-c2ccc(=O)n(Cc3ccc(F)cc3Cl)n2)c1	-3	-8	-1	2	-2	i	-8	3
N#Cc1c(Nc2ccccc2C(F)(F)F)s[nH]c1=O	-3	3	8	1	-12	i	-21	28
O=C(c1ccc(Cl)c(S(=O)(=O)N2CCOCC2)c1)N(c1ccccn1)C1CCCCC1	-7	-2	-4	-9	13	i	-3	-10
S=C(NCCc1ccc(Cl)cc1)NCc1ccccc1	3	2	-5	-9	·	i	-38	2
CC(=O)c1ccc(S(=O)c2ccccc2)cc1 (stereo unspecified)	5	0	-3	0	-25	i	-15	-11
CCC(C)N(C(=O)COC(=O)c1nc(Cl)ccc1Cl)C1CCS(=O)(=O)C1 (stereo unspecified)	1	3	·	·	12	i	18	4
O=C(Nc1ccccc1)c1ccc2c(c1)OCCO2	2	4	-6	0	·	i	·	3
CCN(CC(=O)Nc1ccc(OC)cc1)CC(=O)Nc1ccc(Br)cc1F	1	2	-10	9	15	i	·	-11
O=C1NC2C(NC(=O)N2C2CCCCC2)N1C1CCCCC1 (stereo unspecified)	4	4	1	5	·	i	-15	-16
CCN(CC(=O)Nc1ccc(C#N)cc1)CC(=O)Nc1ccc2c(c1)OCCO2	2	1	·	·	-7	·	-1	·
CCOc1ccccc1N1CCN(C(=O)c2c(Cl)cnn2C)CC1	-1	2	8	-6	8	i	-15	-3
CCOC(=O)N1CCC(N2C(=O)c3ccc(C(=O)Nc4ccc(OC)cc4)cc3C2=O)CC1	-5	-10	·	·	-9	i	-13	-18
COC(=O)C1=C(C)NC2=C(C(=O)CC(c3cccs3)C2)C1c1ccsc1 (stereo unspecified)	6	-12	-5	-11	3	i	4	19
O=C1CC(N2CCSCC2)C(=O)N1c1ccccc1 (stereo unspecified)	-1	1	10	2	-18	i	·	8
CN(C)S(=O)(=O)c1ccc(C(=O)NCC(=O)N/N=C/c2ccccc2Cl)cc1	0	4	-5	-1	16	i	·	-12
C=CCOc1ccc(-c2nc3c(c(=O)[nH]c(=O)n3CCCC)n2C)cc1Br	5	1	-2	1	7	i	-16	6
Cc1sc(N)c(C(=O)c2ccccc2)c1C	-4	0	-2	2	6	i	-12	-6
COc1ccc(-c2csc(NC(=O)CSc3n[nH]c(C)n3)n2)cc1	·	·	10	-1	-18	i	-15	·
Cc1c(NC(=O)Nc2cc(Cl)ccc2Cl)c(=O)n(-c2ccccc2)n1C	-8	-5	-4	-12	0	i	-23	-7
CC1CC(C)(C)NC(=S)N1CC(=O)N1CCN(Cc2ccccc2)CC1 (stereo unspecified)	0	2	-9	-4	1	·	·	9
CSCCC(NS(=O)(=O)c1ccc(Br)cc1)C(=O)OCC(=O)NC1CC1 (stereo unspecified)	-2	2	-6	5	14	i	-41	4
COc1ccc(C(=O)/C=C/Nc2ccc(S(N)(=O)=O)cc2)cc1OC	-7	-8	1	-4	3	i	-17	-12
CC(C)CCNc1nc2c(c(=O)n(Cc3cccc(F)c3)c(=O)n2C)n1C	9	-8	-1	-3	40	i	19	-12
CCOc1ccc(C2=Nn3c(nnc3-c3ccccc3)SC2)cc1Cl	5	1	-6	-1	5	·	-9	11
CCOc1ccc(OCC)c(NS(=O)(=O)c2ccc3c(c2)CCN3C(=O)C2CCC2)c1	0	-7	4	1	·	i	-12	5
CCC(C)(C)NC(=O)C(c1ccc(F)cc1)N(Cc1ccc(OC)cc1)C(=O)c1cnccn1 (stereo unspecified)	3	4	1	6	-23	i	·	2
Cc1ccc(C)c(Nc2cc(C)nc3ccccc23)c1	3	1	·	·	14	i	-9	15
N#CC1=C(N)N(c2ccc(F)cc2)C2=C(C1c1ccc(O)cc1)S(=O)(=O)CC2 (stereo unspecified)	16	51	30	43	2	·	4	·
CN(C(=O)CSc1ncnc2sc(-c3ccccc3)cc12)C1CCS(=O)(=O)C1 (stereo unspecified)	4	-7	4	8	-3	i	-15	12
COc1cccc(NC(=O)c2cccc(N3C(=O)C4CCC(C)CC4C3=O)c2)c1 (stereo unspecified)	1	-2	2	-4	-1	i	-14	6
O=C(COc1coc(CN2CCN(c3ccccc3F)CC2)cc1=O)NC1CCCC1	2	-3	·	·	-5	i	-11	-5
C/C(N)=C(/C#N)C(=O)COC(=O)[C@@H](NC(=O)c1ccccc1Cl)C(C)C	-3	-4	-8	-4	0	i	-10	-12
CN(CC(=O)Nc1ccc2c(c1)CCC2)CC(=O)Nc1ccccc1Br	2	-2	14	1	-11	i	·	-4
CCCn1c(SCC(=O)c2cc(C)n(C3CC3)c2C)n[nH]c1=O	8	5	·	·	-9	·	-3	·
CC1(C(=O)O)Oc2cccnc2NC1=O (stereo unspecified)	2	-1	14	-7	-3	i	·	-9
CCc1nc2ccc(C(=O)Nc3cc(-c4ccccc4)ccc3OC)cn2c1N(CC)Cc1cccc(Br)c1	-13	-12	·	·	14	·	-13	·
CN1CCN(CC(O)COc2ccc(C(=O)O)cc2)CC1 (stereo unspecified)	-3	3	8	0	-4	i	-22	-8
COc1cc(C2=NOC(C(=O)NCc3cccs3)C2)cc(OC)c1OC (stereo unspecified)	18	-5	-9	0	42	i	3	66
N/C(=N\OC(=O)C12CC3CC(CC(C3)C1)C2)c1ccccc1	6	1	9	3	-4	i	4	59
Cc1cccc(NC(=S)N(CCN(C)C)Cc2cc3cc(C)ccc3[nH]c2=O)c1	-7	-5	-5	-4	-46	i	·	8
Cc1cccc(OCCNC(=O)c2cc(C3CC3)nc3c2cnn3C(C)C)c1	3	4	·	·	4	·	-16	·
C/C=C(\C)c1nnc(NC(=O)c2ccco2)s1	-1	-9	7	-5	-46	i	-14	3
CC(=O)[C@@H]1[C@@H](C)N(Cc2ccccc2)C(=O)N[C@H]1c1cccc(C(F)(F)F)c1	-3	-19	2	-1	-3	i	-5	3
CN(Cc1cccs1)C(=O)Cc1c[nH]c2ccccc12	0	2	7	2	2	i	·	-19
Cc1ccc(NC(=S)NCc2ccc(Cl)cc2)c(OC(F)F)c1	1	0	-2	-3	-9	i	-29	4
O=C(COC(=O)CCCc1nc2ccccc2s1)NC(=O)NCc1ccco1	3	3	?	6	1	i	10	-7
O=Cc1ccnc(-c2ccc(OC(=O)c3ccco3)cc2)n1	3	7	2	-9	-6	i	·	17
O=S(=O)(NCCSCc1c(Cl)cccc1Cl)c1ccc2c(c1)OCCO2	2	3	-7	-3	-11	i	1	12
CN(CCc1ccccn1)C(=O)CCC1CCCN(C(=O)c2ccc3c(c2)OCCO3)C1 (stereo unspecified)	1	0	11	-2	14	i	·	-5
CCC(=O)C1CCCN(C(=O)CCc2nnc(-c3ccc4c(c3)OCO4)o2)C1 (stereo unspecified)	-3	4	-1	-2	-9	i	-18	5
Cc1ccc(NC(=O)c2ccco2)nc1	0	-1	·	·	13	·	-11	·
CCOC(=O)C(=O)NNc1ccccc1OC	8	-1	4	0	4	i	·	-5
CCc1ccc(OCCOCC(O)CNC(C)(C)C)cc1 (stereo unspecified)	6	7	-11	-3	-3	i	13	-11
Cc1ccc(CSCCNC(=O)CN(c2cccc([N+](=O)[O-])c2)S(C)(=O)=O)cc1	-1	-5	5	-2	55*	i	·	0
CC1CCCCN1C(=O)c1ccccc1NC(=O)c1ccco1 (stereo unspecified)	-6	0	8	1	·	i	-36	5
Cc1nc2ccccc2c(=O)n1NC(=O)c1ccccc1Br	2	1	15	-4	-10	i	-20	-14

A different layout for part of the listing above:
Below each SMILES: MT1-MMP act inh | MT1-MMP act inh RFP | PABP FP inh | eIF4H FP inh | HIV Env fusion | Rce1 inh | UUG fidelity | CSC inhib
CCC(=O)C1CCCN(C(=O)CCc2nnc(-c3ccc4c(c3)OCO4)o2)C1 (stereo unspecified)
  -3 | 4 | -1 | -2 | -9 | i | -18 | 5
Cc1ccc(NC(=O)c2ccco2)nc1
  0 | -1 | · | · | 13 | · | -11 | ·

Structures above shown as hits in HIV Env fusion:
| SMILES | MT1-MMP act inh | MT1-MMP act inh RFP | HIV Env fusion | Rce1 inh | UUG fidelity |
| --- | --- | --- | --- | --- | --- |
| Cc1ccc(CSCCNC(=O)CN(c2cccc([N+](=O)[O-])c2)S(C)(=O)=O)cc1 | -1 | -5 | 55* | i | · |

Molecules from the list above with a COOH group:
SMILES	MT1-MMP act inh	MT1-MMP act inh RFP	PABP FP inh	eIF4H FP inh	HIV Env fusion	Rce1 inh	UUG fidelity	CSC inhib
CC1(C(=O)O)Oc2cccnc2NC1=O (stereo unspecified)	2	-1	14	-7	-3	i	·	-9
CN1CCN(CC(O)COc2ccc(C(=O)O)cc2)CC1 (stereo unspecified)	-3	3	8	0	-4	i	-22	-8

(list continues)
SMILES	MT1-MMP act inh	MT1-MMP act inh RFP	PABP FP inh	eIF4H FP inh	HIV Env fusion	Rce1 inh	UUG fidelity	CSC inhib
CCNC(=O)C1(C)CCCN(C(=O)c2ccnc(Cl)c2)C1 (stereo unspecified)	2	4	·	·	-3	·	3	·
C=CCNCCOc1ccc(C(C)(C)c2ccccc2)cc1	19	40	4	8	7	i	·	53
COc1cc(CCC(=O)N2CCN(S(=O)(=O)c3ccc(C)c(C)c3)CC2)cc(OC)c1OC	-1	3	4	-5	·	·	-5	-15
CC(=O)Nc1cccc(C(=O)/C=C/c2ccc(/C=C/C(=O)c3cccc(NC(C)=O)c3)cc2)c1	·	·	0	-12	·	i	·	77*
NC(=O)c1ccc(Nc2ccc3c(c2)CCC3)c([N+](=O)[O-])c1	-1	-6	-6	8	33	i	-16	20
N=C(N)SCc1ccccn1	1	3	-3	8	·	i	·	-20
CCOc1cc(CNCc2cccnc2)cc(Br)c1OCC(N)=O	0	-2	14	-3	-15	i	9	8
CCCn1cc(S(=O)(=O)c2ccc(Cl)cc2)c(=O)c2cc(OC)ccc21	-1	-3	2	-5	12	i	-3	-7
COc1ccccc1/C=C/C(=O)NC1CC2CCC1C2 (stereo unspecified)	2	-2	14	-3	0	i	13	0
COc1ccc(S(=O)(=O)N(C)CC(=O)NCC2CCCO2)cc1OC (stereo unspecified)	1	3	6	1	0	i	-3	-4
CCn1nc(C)c(/C=N/NC(=O)Cn2nnc(N)n2)c1C	·	·	5	2	7	i	-9	·
Cc1ccc(S(=O)(=O)c2c(COC(=O)c3ccc(Cl)cc3)c(-c3ccccc3)nn2C)cc1	-3	-13	-8	-4	·	i	-25	-3
C=CC[N+]1(CC=C)CCOCC1	1	2	13	11	-5	i	-10	4
CCCCC(=O)Oc1ccccc1C1SCc2cc(C)c(C)cc2CS1	-9	-2	-4	-3	·	i	-7	15
Cc1ccc(C(=O)Nc2nc3ccc(S(C)(=O)=O)cc3s2)s1	-1	-1	3	2	-203	i	-25	0
CCNc1ccc(Br)cc(C(=O)/C=C/c2ccc(Cl)cc2)c1=O	-11	2	10	34	·	i	6	·
